# Compound activity from PubChem BioAssay.
# GCN5L2 inh: inhibitors of human GCN5L2 histone acetyltransferase; Potency, µM (top dose mostly 58.9 µM), for inactives: at the top dose activity change, negative = inhibition, actives largely listed as inhibitors; GCN5L2 HAT assay, ThioGlo1 CoA-SH fluorescence; 390,000 tested, 0.21% active; active = well fitted inhibition curve with a large enough effect; inconclusive = small, poorly fitted or top-dose-only effect, or another doubt; inactive = no such curve, though single readings can be large or run the other way
# Target sequence (Q92830 whole entry, looked up): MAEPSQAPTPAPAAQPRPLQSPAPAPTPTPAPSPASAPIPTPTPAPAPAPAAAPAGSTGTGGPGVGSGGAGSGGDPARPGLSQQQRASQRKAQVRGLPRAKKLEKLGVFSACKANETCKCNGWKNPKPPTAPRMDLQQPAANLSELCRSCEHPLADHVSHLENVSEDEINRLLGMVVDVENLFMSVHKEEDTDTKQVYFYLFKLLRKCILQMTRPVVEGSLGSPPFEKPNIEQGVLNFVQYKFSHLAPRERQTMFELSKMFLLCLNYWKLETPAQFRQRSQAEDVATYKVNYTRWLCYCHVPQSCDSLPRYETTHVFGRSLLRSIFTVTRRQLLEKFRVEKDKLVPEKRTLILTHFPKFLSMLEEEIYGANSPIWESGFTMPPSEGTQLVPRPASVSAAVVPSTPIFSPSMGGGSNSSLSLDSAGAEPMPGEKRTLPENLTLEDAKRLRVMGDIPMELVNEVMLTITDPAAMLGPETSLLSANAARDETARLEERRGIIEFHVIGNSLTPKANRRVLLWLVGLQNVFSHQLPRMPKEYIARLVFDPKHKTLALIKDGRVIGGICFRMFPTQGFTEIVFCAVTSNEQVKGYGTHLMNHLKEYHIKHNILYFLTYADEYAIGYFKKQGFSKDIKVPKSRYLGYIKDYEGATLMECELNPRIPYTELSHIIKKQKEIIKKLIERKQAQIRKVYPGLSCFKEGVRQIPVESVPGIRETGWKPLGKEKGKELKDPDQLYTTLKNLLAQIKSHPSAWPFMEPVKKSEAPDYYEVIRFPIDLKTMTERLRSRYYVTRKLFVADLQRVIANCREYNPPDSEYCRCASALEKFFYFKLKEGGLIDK
#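 Titration-based screen in which CoA formation is detected via maleimide probe ThioGlo1 (50uM) turning fluorescent on thiol reaction; substrates H3(1-25) 75uM and acetyl-CoA 70uM, GCN5L2 20nM, 20 min incubation at room temperature.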
# The depositor's hits bear a star; ? = inconclusive; & = joins results of further samples; [ ] = another dose, or the depositor's remark. % is scaled to controls: 0 for no effect and ±100 for the full control effect; potency is read from the fitted curve at half-maximal effect. This is a subset, and most or all hits are left out here.
smiles | GCN5L2 inh
C#CCOCCOCCOCCNc1nc(N2CCN(C(=O)C([C@@H](C)O)n3cc([C@@H](N)CCCCN)nn3)CC2)nc(N2CCN(C(=O)[C@H](CO)n3cc([C@@H](N)C(C)C)nn3)CC2)n1 (some centres not stated) | -2%
Cc1ccc(S(=O)(=O)c2c(N)n(NC(=O)c3ccccc3C)c3nc4ccccc4nc23)cc1 | -8%
O=c1oc2c(CN3CCOCC3)c(O)ccc2c2ccccc12 | -19%
Cc1ccc(CN2CCSc3ccc(C(=O)NCc4ccc(OC(C)C)cc4)cc32)cc1 | -3%
CCOC(=O)Oc1ccc2oc(=O)cc(C)c2c1 | -1%
COc1ccc(CCN2CC3=C(C2=O)C(c2ccccc2)NC(=O)N3C)cc1OC (configuration not stated) | -13%
CCc1ccc(NS(=O)(=O)c2cc3c4c(c2)CCN4C(=O)CC3)cc1 | -12%
Cc1cc(C)nc(N2CCC(C(=O)NCc3ccco3)CC2)n1 | -6%
CC(=O)Cc1nsc(NC(=O)c2ccc(-c3cccc(C(F)(F)F)c3)o2)n1 | 2%
Cc1oc2nc(SCC(=O)N3CCCCC3)nc(N)c2c1C | -3%
Cc1ccc2c(c1)NC(=O)C(CC(=O)NCCCN1CCCC1)O2 (configuration not stated) | -4%
CC(C)CCC1(C)NC(=O)N(CC(=O)c2ccc[nH]2)C1=O (configuration not stated) | -3%
CCn1cc(CN2CCCC(C(=O)Nc3ccc(-c4nc5ccccc5[nH]4)cc3)C2)c(C)n1 (configuration not stated) | -6%
Cc1cccc(NC(=S)N2CCC(c3nc4ccccc4s3)CC2)c1 | -13%
N#CC(CO)(Cc1ccc(OC(F)F)cc1)c1nc2ccccc2[nH]1 (configuration not stated) | -6%
Cc1ccc(SCc2cc(=O)[nH]c(N3CCCCC3)n2)cc1 | -4%
Cc1ccc(N2C(=O)S/C(=C/c3cn(C)c4ccccc34)C2=O)cc1 | -3%
COc1ccccc1NC(=O)CCN1C(=O)c2ccccc2S1(=O)=O | 2%
CN1[C@@H]2CC(OC(=O)[C@@H](CO)c3ccccc3)C[C@@H]1[C@H]1O[C@H]12 (some centres not stated) | -4%
CCN(CC(=O)Nc1ccccc1C(F)(F)F)C(=O)c1ccc2c(c1)NC(=O)CS2 | -11%
CC(=O)c1cccc(NC(=O)NC2CCCc3ccccc32)c1 (configuration not stated) | 11%
CCOC(=O)C1=C(COC(=O)c2ccc(Cl)cc2[N+](=O)[O-])NC(=O)NC1C (configuration not stated) | -10%
Cc1ccccc1C(=O)NC1CCN(Cc2nnnn2C(C)(C)C)CC1 | 0%
CCCCNC(=O)C1CCCN(c2nnc(C)c3c(C)n(-c4ccc(Cl)cc4)nc23)C1 (configuration not stated) | -8%
COc1cccc(COC(=O)C2CCN(C(=O)c3ccc(F)cc3)CC2)c1OC | 2%

# Three of the entries above in order of their number in GCN5L2 inh, highest first.
SMILES | GCN5L2 inh
CC(=O)Cc1nsc(NC(=O)c2ccc(-c3cccc(C(F)(F)F)c3)o2)n1 | 2%
CCCCNC(=O)C1CCCN(c2nnc(C)c3c(C)n(-c4ccc(Cl)cc4)nc23)C1 (configuration not stated) | -8%
CCN(CC(=O)Nc1ccccc1C(F)(F)F)C(=O)c1ccc2c(c1)NC(=O)CS2 | -11%

# Other structures follow:
smiles | GCN5L2 inh
C[C@H](NC(=O)c1ccc(Cl)c(S(=O)(=O)N2CCOCC2)c1)c1nc2ccccc2[nH]1 | -6%
Cc1ccc(/C=N/NC(=O)c2c(-c3ccccc3)noc2C)o1 | -8%
Cc1ccc(S(=O)(=O)N(C)c2ccc(OCC(=O)O)cc2)cc1 | 1%
CCOCCCNC(=O)CCCOc1ccccc1 | -4%
COc1ccc(N/C=C/C(=O)c2ccc(Oc3ncccn3)cc2)cc1 | -6%
COc1cccc(N2CCN(CC(=O)NC(=O)NC3CCCCC3)CC2)c1 | -23%
CCCN(C(=O)Cc1csc(-c2ccccc2)n1)C1CCS(=O)(=O)C1 (configuration not stated) | -2%
Cc1cc2oc(=O)cc(CN(C)Cc3ccc(OC(F)F)cc3)c2cc1Cl | -5%
O=C(Nc1ccccc1N1CCCC1)c1ccc2c(c1)OCO2 | -26%
C/C(=N\OC(=O)c1ccc(OC(C)C)cc1)c1ccc(C)c(C)c1 | -7%
Cc1ccc(CSCCNS(=O)(=O)c2ccc([N+](=O)[O-])cc2)cc1 | -6%
O=S(=O)(Nc1ccc(N2CCOCC2)cc1)c1ccc2ccccc2c1 | -1%[0.501 µM]
COc1ccc(-c2c(O)c3c(OC)c4c(cc3oc2=O)OC(C)(C)CC4)cc1 | -4%
CC(=O)N1CCN=C1SCc1ccc(Cl)cc1 | -15%
COc1ccc(OC)c(Nc2ccc(Nc3cc(OC)ccc3OC)nn2)c1 | -3%
COc1ccc(N2CCN(C(=O)c3oc4ccccc4c3NC(=O)c3ccccc3OC)CC2)cc1 | -3%
COc1ccc(-c2cc(C(F)(F)F)nc(-n3ccnc3)n2)cc1 | -4%
COC(=O)c1ccc(NC(=O)CSc2nc3c(c(=O)n(C)c(=O)n3C)n2Cc2ccccc2)cc1 | 3%
CCOC(=O)Cc1csc(NC(=O)CCc2ccccc2)n1 | 0%
Cc1cc2nc(=O)c(/C=C3\C=Nc4ccccc43)c(N)n2o1 | -1%
COc1ccccc1N1CCN(c2ccc(NC(=O)c3ccc(C)cc3)cc2C(=O)O)CC1 | 0%
CCOC(=O)C1CCN(C(c2cccnc2)c2c(NC(=O)c3ccco3)sc(C)c2C)CC1 (configuration not stated) | ?
CCCCS(=O)(=O)Nc1ccc(C(=O)NCC2CCCO2)cc1 (configuration not stated) | -12%
Cc1cc(=O)oc2c(C)c(OC(C)C(=O)NCc3ccccn3)ccc12 (configuration not stated) | -5%
OCc1ccccc1 | -28%

# Additional results:
smiles | GCN5L2 inh
N#Cc1ccccc1S(=O)(=O)N1CCN(C(=O)Cc2coc3cc(O)ccc23)CC1 | -8%
COC(=O)Nc1c(-c2ccccc2)nc2ccc(C)cn12 | -6%
C#CCOCCOCCOCCNc1nc(N2CCN(C(=O)[C@H](CCC(=O)O)n3cc(C(N)CO)nn3)CC2)nc(N2CCN(C(=O)[C@H](Cc3ccc(O)cc3)n3cc(C(N)[C@H](C)CC)nn3)CC2)n1 (some centres not stated) | 1%
CCc1ccccc1NC(=O)c1cc(C2CC2)on1 | -4%
COc1cc2c(C)c3c4c(cc(OC)c(OC)c4c2cc1OC)CCN3C | -18%
COc1ccc(CCNC(=O)Cc2cccs2)cc1 | -10%
COc1ccc(N(CC(=O)Nc2cccc(Cl)c2)S(=O)(=O)c2c(C)[nH]c(=O)[nH]c2=O)cc1 | -3%
Cc1ccc(SCn2nnc3ccccc3c2=O)c(C)c1 | -17%
Cc1cc(NS(=O)(=O)c2ccc(NC(=O)c3cnc(Cl)c(Cl)c3)cc2)nc(C)n1 | -6%
COc1cc(C(=O)Nc2ccc3c(c2)OCCO3)ccc1OC(C)C | -3%
c1cncc(CNc2ncnc3sccc23)c1 | 0%
CC(=O)Nc1ccc(NC(=O)Nc2ccc3c(c2)N(C)C(=O)CS3)cc1 | -6%
COc1ccc(OC)c(Nc2cc(C)nc3nc(C)nn23)c1 | -2%
COc1cc2c(cc1OC)C(C)N(S(=O)(=O)c1ccc(Cl)nc1)CC2 (configuration not stated) | -1%
O=C(Cc1cn2ccsc2n1)Nc1nc2c(s1)CN(Cc1ccccc1)CC2 | -6%
CC1CCCC(C)N1C(=O)COC(=O)c1cc(Br)ccc1Cl (configuration not stated) | -6%
Cc1ccc(OCC(=O)Nc2ccncc2)cc1 | -2%
Cc1ccccc1NS(=O)(=O)c1ccc(C(=O)N2CCN(S(=O)(=O)c3ccccc3)CC2)cc1 | -8%
CN(c1ccc(C(=O)N2CCN(c3ccccc3F)CC2)cc1)S(=O)(=O)c1ccccc1 | -7%
COc1ccc(OC)c(/C=N/N(C)c2ccccc2)c1 | -10%
Cc1cccc(NC(=S)Nc2ccc(Cl)c(Cl)c2)c1 | -6%
O=C(C1CCC(CNS(=O)(=O)c2cccc3nsnc23)CC1)N1CC=C(c2ccccc2)CC1 (configuration not stated) | -9%
O=C(COc1cc(Cl)c(Cl)cc1Cl)Nc1ccncc1 | -7%
COc1cc(OC)c(C2Oc3nc(SC)nnc3-c3ccccc3N2C(C)=O)cc1OC (configuration not stated) | -4%
Cc1cccc(C(=O)NNC(=O)CN2C(=O)c3ccccc3C2=O)c1 | 0%

# The list goes on.
smiles | GCN5L2 inh
CCCCCN(C(=O)CCC(=O)OCC(=O)N1C(C)CCCC1C)c1c(N)n(CCCC)c(=O)[nH]c1=O (configuration not stated) | 1%
O=[N+]([O-])c1cccc(NC(=S)NCCc2ccccc2)c1 | -13%
CCCn1c(SCC(=O)Nc2ccc3c(c2)OCCO3)nnc1-c1ccco1 | -3%
O=C1C2Sc3[nH]c(=O)sc3C(c3ccccc3)C2C(=O)N1c1ccc(Cl)cc1 (configuration not stated) | -10%
Cc1cccc(-n2c(=O)c3ccccc3n3c(=S)[nH]nc23)c1C | 0%
CCn1c2ccccc2c2cc(NC(=O)c3ccc(=O)oc3)ccc21 | -15%
O=C(Nc1ccc(Cl)cc1)C1CCN(c2nc3ccccc3n3cccc23)CC1 | -12%
CCNC(=O)COC(=O)c1cc(-c2ccccc2)nn1-c1ccccc1 | 6%
Cc1cccc(NS(=O)(=O)c2ccc(C(=O)N3CCN(c4ccccc4O)CC3)cc2)c1C | -6%
Cc1ccccc1CSCCNC(=S)Nc1ccccc1 | -15%
CN1C(=O)C(O)(CC(=O)c2ccc(F)cc2)c2cc(Br)ccc21 (configuration not stated) | 0%
CCOC(=O)N1CCN(C(=O)C2CCCN(S(C)(=O)=O)C2)CC1 (configuration not stated) | 12%
CC(C)Sc1ncc(Cl)c(C(=O)Nc2c(C(=O)Nc3ccccc3)oc3ccccc23)n1 | -9%
O=C(c1sc2ccccc2c1Cl)N1CCN(c2ncccn2)CC1 | 0%
Cc1ccc(CC(=O)NCCN2CCOCC2)cc1 | -3%
CCCC1(c2ccccc2)NC(=O)N(CC(=O)Nc2cc(C)on2)C1=O (configuration not stated) | 2%
CC(C)(C)OC(=O)NCCCCCc1nnc(SCC(=O)Nc2cccc(Cl)c2)o1 | -2%
Cc1cc(C[n+]2ncsc2N)c2ncccc2c1 | -20%
CCCOc1ccc(CNC(=O)C2CCCN(c3nc4c(C)cc(C)cc4s3)C2)cc1 (configuration not stated) | -5%
O=S(=O)(NC1CCCCC1)c1ccc(S(=O)(=O)N2CCN3CCCC3C2)cc1 (configuration not stated) | -7%
COc1ccc(C[C@H]2CN3C(=NC[C@@H]3C)N2CCNC(=O)CCC2CCCCC2)cc1 | -10%
Cc1cc(NC(=O)COC(=O)c2ccc(S(=O)(=O)C(F)F)cc2)n(-c2ccccc2)n1 | 2%
COc1cc2c(cc1OC)CN(c1nc(CN3CCOCC3)nc3sc4c(c13)CCCC4)CC2 | 1%
Cc1ccnc(NC(=O)CNC(=O)Cc2cccc3ccccc23)c1 | 0%
C[C@H](NC(=O)[C@H]1N2C(=O)c3ccccc3C2SC1(C)C)C(=O)N1CCCCC1 (some centres not stated) | -15%

# 4 neighbouring compounds out of the list so far:
smiles | GCN5L2 inh
CCCCCN(C(=O)CCC(=O)OCC(=O)N1C(C)CCCC1C)c1c(N)n(CCCC)c(=O)[nH]c1=O (configuration not stated) | 1%
O=[N+]([O-])c1cccc(NC(=S)NCCc2ccccc2)c1 | -13%
CCCn1c(SCC(=O)Nc2ccc3c(c2)OCCO3)nnc1-c1ccco1 | -3%
O=C1C2Sc3[nH]c(=O)sc3C(c3ccccc3)C2C(=O)N1c1ccc(Cl)cc1 (configuration not stated) | -10%

# The listing continues:
smiles | GCN5L2 inh
CCN(CC)C(=O)Cn1c(=O)n(-c2ccccc2)c(=O)c2c3c(sc21)CCC3 | 0%&-5%
O=C(Nc1cccnc1)c1cccc(S(=O)(=O)Nc2ccccc2F)c1 | -2%
CCN(C(=S)NC(=O)C1CC1)c1ccccc1 | -10%
CCN(N=O)[C@@H](Cc1ccccc1)CN(N=O)[C@@H](Cc1ccccc1)CN(C)N=O | -8%
Cc1cccc(CCNS(=O)(=O)c2ccc3c(c2)NC(=O)C(C)S3)c1 (configuration not stated) | -3%
CN(CC(=O)Nc1cccc(F)c1)C(=O)c1ccc(OCC2CCCO2)cc1 (configuration not stated) | ?
CCCCCCn1c(C)nc2c(c1=O)c1nc3ccccc3nc1n2/N=C/c1ccco1 | -7%
CCc1ccc(N2NC(=O)/C(=C/C=C/c3ccco3)C2=O)cc1 | 26%
CCO[C@H]1OC(C(=O)NC2CC2)=C[C@@H](c2csc3ccccc23)[C@@H]1CCCO | 10%
O=C(NCc1cccnc1)c1cccc(F)c1 | -27%
CC(C)N1CCC(NC(=O)NC2CCCCC2)CC1 | 1%
O=C(Nc1nc2c(Cl)cccc2s1)C1CC1 | -5%
CCOc1ccc(NC(=O)c2cc3cc4ccc(OC)cc4nc3o2)cc1 | -1%
CCOc1ccc(NC(=O)C2CCCN(c3c(CC)c(C)nc4ncnn34)C2)cc1 (configuration not stated) | -23%
CC(C)Cc1nc2sc3c(NCc4ccco4)ncnc3c2c2c1COC(C)(C)C2 | -2%
Cn1cccc1/C=C(\C#N)c1ccccc1 | -17%
CCOc1ccccc1NC(=O)c1ccccc1N(C)S(C)(=O)=O | 2%
CCCc1c(C(=O)N/N=C/c2cccc3ccccc23)nnn1-c1nonc1N | -5%
CC(=O)OC(C)=O | -5%
OC1CCCN(Cc2cccc3ccccc23)C1 (configuration not stated) | 0%
CCOC(=O)c1ccc(N=C2C(=S)N(c3ccc(C(=O)OCC)cc3)C(=N)N2/N=C/c2ccccc2)cc1 | -4%
O=C(Nc1ccc(Br)cc1Br)c1cccc2c1C(=O)N(C1CCCCC1)C2 | 0%
